KCNQ2 enhance: potentiators of rat KCNQ2 potassium channel; O88943; CHO-K1 KCNQ2, FluxOR thallium flux fluorescence; active compounds read high; B-score at 10 µM; hit rate 0.54% among 310,000; AID 2239;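 active = fluorescence ratio B-score at least 3 SD of library B-scores, with initial fluorescence B-score within 3 SD, cut at about 5.3 in these data; same plate scores as AID 2156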;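 note: B-score of peak minus minimum over baseline fluorescence ratio after K+ and Tl+ stimulus; positive B-score means potentiation of KCNQ2 with more thallium influx and brighter signal; only the inactives scoring about 0 or higher are listed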
Target sequence (O88943 whole entry, looked up): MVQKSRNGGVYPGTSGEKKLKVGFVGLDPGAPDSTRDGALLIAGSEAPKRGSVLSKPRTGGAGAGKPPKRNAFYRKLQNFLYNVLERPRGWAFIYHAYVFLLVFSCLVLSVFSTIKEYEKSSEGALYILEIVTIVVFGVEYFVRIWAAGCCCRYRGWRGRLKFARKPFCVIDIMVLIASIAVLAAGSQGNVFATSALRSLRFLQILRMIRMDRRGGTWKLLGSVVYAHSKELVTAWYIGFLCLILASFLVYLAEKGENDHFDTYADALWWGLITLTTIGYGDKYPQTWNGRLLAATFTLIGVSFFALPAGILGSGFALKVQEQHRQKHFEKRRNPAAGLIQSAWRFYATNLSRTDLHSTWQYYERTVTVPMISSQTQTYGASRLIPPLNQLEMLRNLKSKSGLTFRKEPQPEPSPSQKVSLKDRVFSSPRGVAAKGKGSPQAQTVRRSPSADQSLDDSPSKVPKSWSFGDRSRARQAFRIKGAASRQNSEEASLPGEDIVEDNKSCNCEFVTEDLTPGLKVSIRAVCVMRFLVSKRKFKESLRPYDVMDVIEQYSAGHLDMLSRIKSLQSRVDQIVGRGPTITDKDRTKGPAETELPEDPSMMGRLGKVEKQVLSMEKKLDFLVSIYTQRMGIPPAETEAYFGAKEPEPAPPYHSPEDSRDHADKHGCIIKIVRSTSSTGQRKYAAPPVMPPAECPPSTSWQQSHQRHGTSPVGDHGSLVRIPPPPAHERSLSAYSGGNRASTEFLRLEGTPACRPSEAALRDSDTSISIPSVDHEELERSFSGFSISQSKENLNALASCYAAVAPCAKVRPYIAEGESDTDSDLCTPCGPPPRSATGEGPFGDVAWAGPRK
KCNQ2 enhance baseline: also measured in KCNQ2 enhance; calls as there; B-score; compound at 10 µM; measured here: initial fluorescence intensity artifact check;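 brightness before thallium and not channel activity; 0 = typical well and far values either way flag optical interference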
The depositor's hits bear a star. An excerpt. The share of hits here may be higher or lower than overall.

SMILES | KCNQ2 enhance | KCNQ2 enhance baseline
CCn1c(=S)sc2c(=O)n(CC(=O)Nc3ccccc3OC)c(C)nc21 | 0.17 | -0.98
O=c1[nH]cc(-c2ccccc2)c(=O)[nH]1 | 0.1 | -0.26
CCOC(=O)c1csc(NC(=O)c2ccc(S(=O)(=O)N3CCCC3)cc2)n1 | 0.61 | 0.56
Cc1ccc(Nc2nc3nonc3[nH]c2=O)cc1Cl | 2.2 | -1.4
CCOC(=O)N1CCN(C(=O)CSc2nc3c(cnn3-c3ccc(Cl)cc3)c(=O)[nH]2)CC1 | 2 | 0.42
COc1ccc(NC(=O)c2cc(NC(=O)C3CCCCC3C(=O)O)ccc2N2CCOCC2)cc1 (centres undefined) | 0.55 | 0.38
Nc1ccc(-n2nncc2-c2ccco2)cc1 | 0.14 | 0.95
COc1ccc(N2CCN(C(=O)Nc3ccccc3Cl)CC2)cc1 | 0.11 | -0.05
CCC(Sc1nc2sc(C(=O)OC)c(C)c2c(=O)n1N)C(=O)NCC1CCCO1 (centres undefined) | 0.41 | -1.7
Cc1ccc(-n2c3c(cc(C(=O)NCCCN4CCOCC4)c2=O)C(=O)CC(C)(C)C3)cc1 | 1.1 | -0.02
O=c1[nH]c2c(s1)C(c1cccnc1)C1C3CCC(C3)C1S2 (centres undefined) | 1.4 | -1
CN(CC(=O)Nc1ccc(Cl)c(S(=O)(=O)N(C)C)c1)Cc1ccccc1 | 1.6 | 1
Cc1ccc(-n2nnc3c(=O)n(Cc4ccccc4C)cnc32)cc1 | 0.62 | -0.85
Cc1cc(NC(=O)Cc2ccc(Br)cc2)no1 | 0.19 | -0.2
CC(=O)c1cccc(NC(=S)Nc2ccn(Cc3cccc4ccccc34)n2)c1 | 2.1 | -0.62
CC(C)C(=O)Nc1ccc(C(=O)N/N=C/C2CC3C=CC2C3)cc1 (centres undefined) | 1.5 | -2.6
CCCCNC(=O)Cn1nc(Cc2ccncc2)c2ccccc2c1=O | 0.03 | 0.05
c1cncc(-c2nnc(SCc3cccc4ccccc34)o2)c1 | 1.4 | 0.32
Cc1ccc(S(=O)(=O)N2CCC(C(N)=O)CC2)cc1C(=O)NC1CCCCC1 | 1.1 | 1.1
CCOc1ccc(/C=N/n2nnnc2N)cc1OCC | 0.38 | -0.02
COc1cc(NC(=O)c2cccc(C)c2)c(OC)cc1NC(=O)CN1CCOCC1 | 0.93 | -0.8
COc1ccc(OC)c(-n2c(CN3CCC(C(N)=O)CC3)nc3ccccc3c2=O)c1 | 0.42 | -0.97
CCCCn1c(=O)[nH]c(=O)c2c1nc(CN(C)Cc1cccc(OC)c1OC)n2CCC | 2.9 | 0.31
C=CCNc1ccc(C(=O)O)cc1 | 0.12 | -2.3
COc1ccc(Nc2ncnc3c2c(C)c(C)n3CCO)cc1 | 0.73 | -1.2
Cc1cccc(N2CC(O)(c3cccs3)[N+]3=C2CCCC3)c1 (centres undefined) | 0.57 | -0.35
CC1(c2ccccc2)NC(=O)N(CC(=O)Nc2cc(Cl)ccc2N2CCOCC2)C1=O (centres undefined) | 0.02 | 0.13
N/C(=N\OC(=O)CCCc1ccccc1)c1ccc([N+](=O)[O-])cc1 | 1.1 | -1
CCCC(=O)Nc1ccccc1NC(=O)CN(C)S(=O)(=O)c1ccccc1 | 0.53 | -0.68
COc1ccccc1NC(=O)N1CCC(NC(=O)C2CCCCC2)CC1 | 0.17 | 0.68
COc1ccc(Cl)cc1N=Cc1c(O)cc(C)oc1=O | 0.14 | 0.88
Cc1ccnn1CCC(=O)N1CCCC(N2CCN(c3cccc(Cl)c3)CC2)C1 (centres undefined) | 0.19 | -1.8
Oc1ccc(Br)cc1C=Nc1cccn2cc(-c3ccccc3)nc12 | 0.35 | -0.34
COc1ccc(C(C(=O)NCC2CCCO2)N(C(=O)CNC(=O)c2cccs2)c2ccccc2)cc1OC (centres undefined) | 0.63 | -1.1
COCCOC(=O)c1c(C)oc2ccc(OC(=O)c3ccc4c(c3)OCO4)cc12 | 2.7 | -1.1
Cc1c(Cl)cccc1NC(=S)NC1CCCC1 | 0.36 | 1.8
CN1CCCC1CCNc1ccc2c(=O)c3ccccc3oc2c1 (centres undefined) | 2.2 | -0.99
COc1ccc(C(=O)NCc2nnc(SCC(=O)N3CCc4ccccc43)n2Cc2ccccc2)cc1 | 1.6 | -1.1
COc1ccccc1NC(=O)Nc1nc(CC(=O)Nc2cccc(F)c2)cs1 | 0.62 | 0.94
CCN1CCCC1CNC(=O)c1ccc(CS(=O)(=O)c2ccccc2C)o1 (centres undefined) | 0.03 | 1.2
c1ccc(C2CCC(N3CCNCC3)CC2)cc1 (centres undefined) | 0.38 | 0.21
COc1ccc(-n2nc3c(c2NC(=O)CCCCl)CSC3)cc1 | 0.09 | 0.6
CC(NC(=O)/C=C/c1ccc(Br)cc1)c1ccccc1 (centres undefined) | 4.2 | 0.18
CS(=O)(=O)c1cccc(NC(=O)C2CCCN2S(=O)(=O)c2ccc(F)cc2)c1 (centres undefined) | 0.26 | 0.58
Nc1c(N(Cc2ccccc2)C(=O)COc2ccc(F)cc2)c(=O)[nH]c(=O)n1Cc1ccccc1 | 0.01 | 0.03
CCCN(CC(=O)Nc1ccc(F)c(F)c1F)C(=O)c1cc([N+](=O)[O-])ccc1N1CCOCC1 | 0.09 | -0.66
N#Cc1cc(N2CCOCC2)nc2ccccc12 | 0.21 | -1.1
COCCCNC(=O)CN(c1cc(Cl)cc(Cl)c1)S(C)(=O)=O | 1.8 | -1.1
O=C1N(Cc2cccnc2)C[C@@H]2C[C@@H](c3ccccc3C(F)(F)F)N3CCC[C@@]123 | 0.04 | -1.3
O=C(CCN1C(=O)c2ccccc2S1(=O)=O)Nc1nc2c(s1)CCCC2 | 0.31 | 0.02
Later entries.
SMILES | KCNQ2 enhance | KCNQ2 enhance baseline
CN(c1cccc(NC(=O)c2cccc([N+](=O)[O-])c2)c1)S(C)(=O)=O | 0.92 | -0.48
CCOC(=O)Nc1cccc(C(=O)O)c1 | 2.1 | -2.1
CCCC(CCC(=O)Nc1ccc(S(N)(=O)=O)cc1)C(=O)O (centres undefined) | 0.48 | -0.12
CCOC(=O)N1CCC(NCCNC(=O)c2ccccc2Cl)CC1 | 0.05 | -0.57
Cc1ccc(OCC(=O)Nc2ccccc2C(=O)N2CCCC2)cc1 | 0.75 | -0.11
C=CCn1c(SCc2nnc(-c3ccccc3)o2)nnc1C(O)c1ccccc1 (centres undefined) | 0.14 | 0.93
COC(=O)[C@@H](NC(=O)NC1CCN(Cc2ccccc2)CC1)C(C)C | 0.84 | 0.04
COc1ccc2oc(C(=O)NCCN3CCOCC3)c(C)c2c1OC | 1.7 | 0.17
O=C(Nc1ccc([N+](=O)[O-])cc1)c1cncc(Br)c1 | 0.69 | 0.02
Cc1ccc(NC(=O)CN(C)C(=O)Cn2cc(C(F)(F)F)ccc2=O)cc1 | 0.36 | 0.19
CCOC(=O)c1ccc(NC(=O)C2C3CCCCC32)cc1 (centres undefined) | 0.01 | 0
COc1ccc(S(=O)(=O)N/N=C(/C)c2cccc(NC(=O)c3ccccc3Cl)c2)cc1 | 0.04 | 0.1
O=C(NNc1cc(N2CCCC2)nc(N2CCCC2)n1)c1ccc([N+](=O)[O-])cc1 | 2.5 | 0.62
CN(C)S(=O)(=O)Oc1ccsc1C(=O)Nc1cccc(Cl)c1Cl | 0.42 | -2.8
O=C(O)c1ccc(N=Nc2c(-c3ccccc3)[nH]oc2=O)cc1 | 0.39 | 0.1
Cc1cc2c3nonc3ccc2n1C | 0.97 | -0.02
O=C(NCc1ccccc1)c1ccc(OCC2CCCO2)cc1 (centres undefined) | 0.25 | 0.52
CCN(CC(=O)NCCC1=CCCCC1)S(=O)(=O)c1ccccc1 | 0.55 | 0.14
Cc1ccc(CN2CCN(Cc3nc4c(s3)CCCC4)CC2CCO)cc1 (centres undefined) | 1.4 | -1.7
C/C(=N\NC(=O)C1CC1)c1ccc(OC(F)F)cc1OC(F)F | 2.5 | 1.4
CN(C)/C(=N\S(=O)(=O)c1ccccc1)c1ccc(F)cc1 | 0.57 | -0.02
CCOc1cc(/C=C2/NC(=O)N(CC(=O)Nc3cccc(C)c3)C2=O)ccc1O | 0.59 | 0.02
OCCN(CC#CC(O)(c1ccccc1)c1cccc(F)c1)CCO (centres undefined) | 0.63 | 0.33
CC(C)n1c(SCC(=O)Nc2ccc(N3CCOCC3)cc2)nnc1-c1ccco1 | 0.24 | 0.47
O=C(Nc1ccc(F)cc1)c1ccc(-n2cncn2)c([N+](=O)[O-])c1 | 3.6 | -0.6
Cc1ccc(CCNC(=O)C2CCCN(S(=O)(=O)c3cccs3)C2)cc1 (centres undefined) | 0.18 | -0.26
COc1ccc(/C=N/NC(=O)c2cccc([N+](=O)[O-])c2)cc1OS(=O)(=O)c1ccc(C)cc1 | 2 | -1.4
COc1cccc(Nc2cc(C)nc3nc(C)nn23)c1 | 0.22 | 1.2
Clc1ccc(C2=Nn3c(nnc3-c3cc(-c4ccccc4)n[nH]3)SC2)cc1 | 0.91 | -2.2
Cc1ccc2c(c1)c1c(n2CC(O)CN2CCCCC2C)CCCC1 (centres undefined) | 0.64 | -0.57
CCCCSc1nc2c(cnn2-c2ccccc2)c(=O)n1N | 0.16 | -2.1
O=C(N/N=C\c1ccc(COc2ccc([N+](=O)[O-])cc2)o1)c1cccc(Cl)c1 | 0.15 | -0.61
Cc1ccc(S(=O)(=O)Oc2ccc3c(c2)O/C(=C\c2cccnc2)C3=O)cc1 | 1.4 | -0.21
CCOc1ccc(-c2cc(CCCC(=O)NCc3cccnc3)no2)cc1 | 2 | -0.11
O=C(CNc1ccccc1)N/N=C/c1cn(-c2ccccc2)nc1-c1ccccc1 | 0.73 | -0.35
Cc1c(C(=O)NN2CCOCC2)oc2c1ccc1ccccc12 | 0.1 | -2.6
O=C(Nc1cccnc1Cl)C1CCCN(c2ncnc3c2nc2n3CCCCC2)C1 (centres undefined) | 0.55 | -0.75
CCOC(=O)C(C)On1c(-n2nc(C)cc2C)nc2ccccc2c1=O (centres undefined) | 0.11 | -0.48
O=C(CN1C(=O)/C(=C2\SC(=S)N(C3CCS(=O)(=O)C3)C2=O)c2ccccc21)Nc1ccc(F)cc1 (centres undefined) | 0.09 | -2
Cc1ccc(SCCNC(=O)C(C)C)cc1 | 1.5 | -0.12
NNc1cc([N+](=O)[O-])cc2c1C(=O)N(Cc1ccccc1)S2=O (centres undefined) | 0.42 | -2.1
O=S(=O)(c1ccc(F)c(F)c1)N1CCN(c2ncccn2)CC1 | 0.1 | -1.5
COc1ccccc1CNC(=O)c1ccc(OCC2CCCO2)cc1 (centres undefined) | 0.09 | -2
CC(C)(C)c1ccc(C(=O)NCC(=O)OCN2C(=O)c3ccccc3C2=O)cc1 | 1 | -1.2
O=C(Nc1ccc(F)cc1)N(CCCN1CCOCC1)Cc1cc2cc3c(cc2[nH]c1=O)OCO3 | 2.8 | -0.09
COc1ccc(CCNC(=O)CN2C(=O)NC(Cc3c[nH]c4ccccc34)C2=O)cc1 (centres undefined) | 1.3 | -0.01
Cc1nn(-c2ccccc2)c(C)c1/C=N/NC(=O)c1cc(C23CC4CC(CC(C4)C2)C3)[nH]n1 | 0.53 | -2.5
Cc1cc(C)c(C(=O)N2CCCC(CNS(=O)(=O)c3cccs3)C2)o1 (centres undefined) | 0.35 | 1.3
Cc1cc(C)c(NC2=NS(=O)(=O)c3ccccc32)c(C)c1 | 0.69 | -0.09
Cn1c(N)c(C(=O)CSc2nc(N)cc(=O)[nH]2)c(=O)n(C)c1=O | 1.1 | -0.22
Next section
SMILES | KCNQ2 enhance | KCNQ2 enhance baseline
COc1ccc(S(=O)(=O)NC(C(=O)NCCc2ccccn2)C(C)C)cc1 (centres undefined) | 0.34 | -1.3
COc1ccc(CCNC2CC(=O)N(N(C)C)C2=O)cc1OC (centres undefined) | 0.11 | -1
Cc1c(C)n(Cc2ccccc2)c2ncnc(NCCN(C)C)c12 | 1.2 | -0.03
COc1ccc(OC)c(C2C(C(=O)c3ccc(C)o3)=C(O)C(=O)N2c2cc(C)on2)c1 (centres undefined) | 0.01 | -0.99
CCc1nc2ccccc2c(C(=O)OCC(=O)C(C)(C)C)c1C | 0.32 | 0.1
Cc1cc(C)c2[nH]c(=O)c(CN(CC3CCCO3)C(=O)C3CCCO3)cc2c1 (centres undefined) | 1.2 | -0.02
CCn1c(=NC(=O)c2cccc(N3C(=O)CCC3=O)c2)sc2c(C)ccc(OC)c21 | 0.76 | -0.7
Cc1cc(=O)[nH]c(SCC(=O)NC(c2ccccc2)c2ccccc2)n1 | 1.6 | -1.4

Bioassay records deposited in PubChem BioAssay by Johns Hopkins Ion Channel Center.
